# VDR inhibitor = vitamin D3 receptor (human) inhibition. actives 0.93% (n = 400,000). VDR-SRC2-3 peptide fluorescence polarization, 2 h. Potency, µM, without a hit: max response, negative = inhibition, most hits filed as inhibitors; active = well fitted inhibition curve with a large enough effect; inconclusive = small, poorly fitted or top-dose-only effect, or another doubt; inactive = no such curve, though single readings can be large or run the other way; also: series mostly up to about 120 µM
# Target sequence (P11473 whole entry, looked up): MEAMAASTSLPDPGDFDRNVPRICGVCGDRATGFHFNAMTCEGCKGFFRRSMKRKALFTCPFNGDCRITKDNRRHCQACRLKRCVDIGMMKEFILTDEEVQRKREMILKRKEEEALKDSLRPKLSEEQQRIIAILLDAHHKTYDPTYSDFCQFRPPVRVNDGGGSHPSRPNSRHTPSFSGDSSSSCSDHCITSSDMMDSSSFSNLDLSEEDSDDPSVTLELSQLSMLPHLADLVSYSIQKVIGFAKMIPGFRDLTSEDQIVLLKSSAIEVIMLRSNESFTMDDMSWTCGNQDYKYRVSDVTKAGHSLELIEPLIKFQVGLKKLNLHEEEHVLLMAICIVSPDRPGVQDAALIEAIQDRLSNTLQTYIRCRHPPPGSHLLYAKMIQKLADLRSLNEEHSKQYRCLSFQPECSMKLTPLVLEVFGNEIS
#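 Compounds are added to VDR with labelled SRC2-3 coactivator peptide and held 2 h at room temperature. Inhibition of the VDR–peptide interaction is then read as a change in fluorescence polarization.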
# Starred values were filed as active, the others as inactive; ? = inconclusive; & = joins results of further samples. % is scaled to controls: 0 for no effect and ±100 for the full control effect; potency is read from the fitted curve at half-maximal effect. Not all compounds are listed; rates above refer to the full screens.
SMILES,VDR inhibitor
Cc1ccccc1CNC(=O)C1CCCN(c2nnc(C)c3c(C)n(-c4ccccc4)nc23)C1 (stereo not drawn),10.6%
Cc1noc(NS(=O)(=O)c2ccc(NC(=O)CSc3nc4c(cc3C#N)CCCCC4)cc2)c1C,-12.1%
COc1ccccc1N1CCN(C(=O)Oc2ccccc2)CC1,-6.1%
c1ccc(CCn2nnnc2CN2CCN(C3CCCC3)CC2)cc1,-1.8%
Cc1ccccc1-n1c(SCC(=O)Nc2ccccc2Cl)nc2n[nH]c(C)c2c1=N,8.8%
C[C@@H](NC(=O)c1nc[nH]c1C(=O)NCc1ccc(CNC(=O)OC(C)(C)C)cc1)c1ccccc1,-2.3%
C=CCNC(=O)/C(=C\c1ccc(OC)cc1)NC(=O)c1ccc([N+](=O)[O-])cc1,-18.7%
COc1ccc(C2/C=C\CN(S(=O)(=O)c3ccc(C)cc3)[C@H](Cc3ccccc3)C(=O)N2Cc2ccc(F)cc2)cc1 (stereo partly drawn),-1.6%
Cc1ccc(N(C(=O)c2sc(C)nc2C)C(C(=O)NC(C)(C)C)c2ccncc2)cc1 (stereo not drawn),-13.7%
O=C(Nc1ccc2c(c1)OCO2)C1CC(c2cccc(Br)c2)=NO1 (stereo not drawn),0.9%
CC1(C)CC[C@]2(C)CC[C@@]3(C)C(=CCC4[C@@]5(C)CCC(O)C(C)(C)C5CC[C@@]43C)C2C1 (stereo partly drawn),-9.9%
COc1ccc(OC)c(NS(=O)(=O)c2ccc(Cl)s2)c1,11.8%
NC(=O)NC(=O)CC1S/C(=N/N=C2\CSC(=O)N2)NC1=O (stereo not drawn),1.8%
C=CCNC(=O)C(=O)NN=C1CCN(C)CC1,-5.2%
O=C(NCc1cccnc1)C1c2ccccc2C(=O)N1Cc1ccccc1 (stereo not drawn),?
O=C(Nc1nc(-c2cccs2)cs1)c1ccc(S(=O)(=O)N2CCCCC2)cc1,-15.7%
CCCN(C(=O)CSCc1ccccc1C)c1c(N)n(Cc2ccccc2)c(=O)[nH]c1=O,-16.9%
CCOC(=O)C1CCCN(CCSc2ccc(C)cc2)C1 (stereo not drawn),-0.8%
C/C(=N/NC(=O)COc1cc(C)ccc1C(C)C)C(=O)O,4.6%
COc1cc(C2c3c(-c4cc(C)ccc4O)n[nH]c3C(=O)N2CCCO)ccc1OCCC(C)C (stereo not drawn),10.9%
CN1CCN(CCn2c(=S)[nH]c3ccccc3c2=O)CC1,-13.5%
Cc1c(C(=O)NCC2CCCO2)sc2nc(-c3ccc(F)cc3)cn12 (stereo not drawn),-12.9%
COc1ccc(/C=C/C(=O)Nc2cccc(S(=O)(=O)NC3=NCCCCC3)c2)cc1OC,-10.4%
Cc1ccc(O)c(CNCCNCc2cc(C)ccc2O)c1,-7.3%
O=c1cc(N2CCN(Cc3ccccc3)CC2)c(-c2ccccc2)n[nH]1,4.5%
CC(C)C(=O)Nc1c2c(nn1-c1ccccc1)CSC2,-15.5%
Cc1cc(C)c(C)c(S(=O)(=O)NCc2ccc(C(=O)N3CCN(C)CC3)cc2)c1C,-19.6%
CCOc1ccc(CCNC(=O)c2nn(C)c3c2CS(=O)(=O)c2ccccc2-3)cc1,1.8%
Cc1ccccc1CNC(=O)C(=O)NCC(c1cccs1)S(=O)(=O)c1ccc(Cl)cc1 (stereo not drawn),3.1%
CCOc1ccccc1NC(=O)NCc1ccccc1,3.7%

# The closing 2 compounds of the section above open the next one.
SMILES,VDR inhibitor
Cc1ccccc1CNC(=O)C(=O)NCC(c1cccs1)S(=O)(=O)c1ccc(Cl)cc1 (stereo not drawn),3.1%
CCOc1ccccc1NC(=O)NCc1ccccc1,3.7%
COc1ccc(NC(=S)NCCCc2ccccc2)cc1,-8.7%
NC(N)=NN=Cc1c(Cl)cccc1Cl,2.6%&-4.5%
O=C(Cc1ccccc1)NNS(=O)(=O)c1ccc([N+](=O)[O-])cc1,-17.4%
Cc1cccc(CSCCNC(=O)CN2C(=O)c3ccccc3S2(=O)=O)c1,-24.0%
CCCCc1ccc(NC(=O)C2CCN(S(C)(=O)=O)CC2)cc1,15.4%
COc1ccc(C)cc1N(CC(=O)NC1CCCC1)C(=O)CCC(=O)Nc1cc(C)on1,26.2%
Cc1ccc(N2CCN(S(=O)(=O)N3CCCCC3)CC2)cc1C,1.4%
O=C(NCCc1ccc(O)cc1)c1ccc(Cl)cc1,12.6%
O=C(COc1ccc(Cl)cc1)N1CCCCC1,-5.8%
CC1=C(C(=O)Nc2ccc(F)cc2F)C2(CCCCCC2)OC1=O,6.7%
Cc1ccc(NC(=O)c2nn(C)c3c2CS(=O)(=O)c2ccccc2-3)c(Cl)c1,1.2%
O=C(Nc1ncn[nH]1)c1ccccc1Br,-14.7%
O=C(NN=Cc1cc([N+](=O)[O-])ccc1O)c1cccc2ccccc12,-4.6%
CC(C)(C)C(=O)Nc1cccc(-c2nc3ccccc3[nH]2)c1,15.8%
CC1=C(C(=O)NC2CC(C)(C)Cc3c2cnn3-c2cccc(F)c2)OCCO1 (stereo not drawn),12.8%
COc1cc(NC(=O)CSc2nc(C)cs2)cc(OC)c1,-13.6%
Cc1ccc(Cl)cc1NC(=S)N(CCN(C)C)Cc1cccs1,-15.5%
COc1ccc(Cc2c(O)nc(SCC(=O)NC34CC5CC(CC(C5)C3)C4)[nH]c2=O)cc1,14.2%&5.8%
O=C1CC(c2ccc(Cl)cc2)n2nc(NS(=O)(=O)c3ccc(F)cc3)nc2N1 (stereo not drawn),-12.4%
CCOC(=O)c1c(C)[nH]c(C)c1C(=O)COc1ncnc2ccccc12,?
CCCc1nn(-c2ccccc2)c2c1C(c1cccs1)C(C#N)=C(N)O2 (stereo not drawn),-7.6%
CCOCCn1c(CN2CCN(C(c3ccccc3)c3ccccc3)CC2)nc2c1c(=O)n(C)c(=O)n2C,-11.2%
CN1CCN(CCC(=O)Nc2cccc(Br)c2)CC1,0.4%
S=C(NCC1CCCO1)Nc1ccc(Nc2ccccc2)cc1 (stereo not drawn),-2.7%
CCOc1ccccc1CN1CCN(Cc2[nH]c3ccccc3c2C)CC1CCO (stereo not drawn),2.3%
CCC(C)(CC(=O)O)CC(=O)Nc1cc(C(F)(F)F)cc(C(F)(F)F)c1 (stereo not drawn),-15.1%
COc1ccc(Nc2cc(C)nc3c(C)c(C)ccc23)cc1,1.7%
CC(=O)N(Cc1cc(=O)[nH]c2ccccc12)c1ccccc1C,-1.9%
COc1ccc(N(C(=O)COc2cccc(C)c2)S(=O)(=O)c2ccc(C)cc2)cc1,-17.9%
CCOC(=O)N1CCC(NC(=O)Cn2cccc2C(=O)c2ccccc2C)CC1,10.7%

# Reformatted: entries from further up.
VDR inhibitor | Compound
-7.6% | CCCc1nn(-c2ccccc2)c2c1C(c1cccs1)C(C#N)=C(N)O2 (stereo not drawn)
-11.2% | CCOCCn1c(CN2CCN(C(c3ccccc3)c3ccccc3)CC2)nc2c1c(=O)n(C)c(=O)n2C
0.4% | CN1CCN(CCC(=O)Nc2cccc(Br)c2)CC1
-2.7% | S=C(NCC1CCCO1)Nc1ccc(Nc2ccccc2)cc1 (stereo not drawn)
2.3% | CCOc1ccccc1CN1CCN(Cc2[nH]c3ccccc3c2C)CC1CCO (stereo not drawn)

# The list continues:
SMILES,VDR inhibitor
CCn1c2ccccc2c2cc(/C=N/n3cn[nH]c3=S)ccc21,-8.1%
COc1cccc(C(=O)COC(=O)COc2c(C)cc(C)cc2C)c1,4.1%
Cc1cc(SCc2ccc([N+](=O)[O-])cc2)nc(=O)[nH]1,?
Cc1cc(C)c(S(=O)(=O)Nc2cccc(C(F)(F)F)c2)c(C)c1,-0.9%
CCc1ccc(S(=O)(=O)N(C(=O)c2ccncc2)c2ccc(OC(=O)c3ccncc3)cc2)cc1,-28.6%
CCOC(=O)C1=C(COC(=O)/C=C/c2ccc(Cl)cc2)NC(=O)NC1C (stereo not drawn),-1.4%
Cc1ccc(NC(=O)CCNC(=O)c2ccc(Br)cc2)nc1,-9.2%
Cc1ccc(S(N)(=O)=O)cc1NC(=O)/C=C/c1ccc2c(c1)OCO2,-3.0%
CC(c1ccccc1)N1CCn2c(nc3cc(NC(=O)NC4CCCCC4)ccc32)C1 (stereo not drawn),-6.5%
CCC(C)NC(=O)c1cccc(NC(=O)c2nsc3ccccc23)c1 (stereo not drawn),9.6%
CN1C(=O)C(O)(CC(=O)/C=C\c2ccc3c(c2)OCO3)c2ccccc21 (stereo not drawn),7.6%
C(=N\N1CCN(c2ccccn2)CC1)/c1ccco1,-7.3%
Cc1cc(C)nc(N/N=C/c2ccco2)n1,-6.9%
O=C(CCS(=O)(=O)c1cccc2nonc12)N1CCN(c2ccc(F)cc2)CC1,12.9%
CC[n+]1c(C)n(C)c2cc(S(=O)(=O)N(C)C)ccc21,9.1%
O=C(O)/C(=C\c1c(C(=O)O)[nH]c2cc(Cl)cc(Cl)c12)c1ccccc1,-9.2%
N/C(=N\OC(=O)CSc1ccccc1)c1ccc([N+](=O)[O-])cc1,-1.0%
COc1ccc(OC)c(CCNC(=O)c2nn(C)c3c2CSc2ccccc2-3)c1,3.7%
O=C(NCCc1ccncc1)C(F)(F)F,-7.8%
O=C(CCCOc1ccccc1)Nc1ccncc1,2.6%
C/C(=N\Nc1nc(C)cc(-c2ccccc2)n1)c1ccc(O)cc1,-8.0%
COc1ccc(C(=O)Cc2cc3ccccc3oc2=O)cc1,-8.3%
COCCn1cc(C(=S)N2CCOCC2)c2ccccc21,11.6%
COc1ccc(OC)c(NC(=O)c2ccc(-c3nc(COc4ccccc4)c(C)o3)cc2)c1,-8.9%
COc1ccc(CN2CCOCCOCCN(Cc3ccc(OC)cc3)CCOCCOCC2)cc1,-17.1%
Nc1c(C(=O)Nc2ccc(Br)cc2)sc2nc(-c3ccco3)ccc12,-21.5%
CC(=O)c1ccc(NC(=O)c2nn(C)c3c2CS(=O)(=O)c2ccccc2-3)cc1,6.0%
O=C(Cn1c(=O)oc2ccccc21)NCCc1ccccc1Cl,-2.6%
COc1ccc(Nc2oc(/C=C/c3cccc(OC)c3)nc2C#N)cc1,21.9%
Cc1cc(C)cc(NC(=S)N2CCN(S(C)(=O)=O)CC2)c1,-0.6%

# Three compounds picked at random from those above:
SMILES,VDR inhibitor
COCCn1cc(C(=S)N2CCOCC2)c2ccccc21,11.6%
O=C(Cn1c(=O)oc2ccccc21)NCCc1ccccc1Cl,-2.6%
Cc1cc(C)cc(NC(=S)N2CCN(S(C)(=O)=O)CC2)c1,-0.6%

# Remaining list, next part
SMILES,VDR inhibitor
O=C(NN=C1CCN(Cc2ccccc2)CC1)c1cc2ccccc2cc1O,1.9%
COc1ccc(NC(=O)CCCN2C(=O)COc3ccc(C)cc32)cc1OC,13.8%
COc1ccc(C2(C)NC(=O)N(CC(=O)Nc3c(C)n(C)n(-c4ccccc4)c3=O)C2=O)cc1 (stereo not drawn),21.9%
O=S(=O)(NCCN1CCOCC1)c1ccc(Oc2ccccc2Cl)cc1,19.6%
O=C(N/N=C/c1ccc2c(c1)OCO2)c1ccc(COc2cccc3cccnc23)cc1,-6.7%
O=C(CN(Cc1ccccc1)C(=O)c1cc2c(s1)CCC2)NCc1cccs1,-0.2%
CSCC[C@H](NC(=O)N1CCn2c1nc1ccccc12)C(=O)NCc1ccccc1,-11.2%
O=C(NCCc1ccccc1)c1ccc2c(c1)OCO2,-3.6%
COc1ccc(NC(=O)CSc2nc(N)c(NC(=O)c3cccs3)c(=O)[nH]2)cc1,18.0%
OCCC1CN(Cc2ccc3cccc(F)c3n2)CCN1Cc1ccccc1 (stereo not drawn),-11.8%
O=C(N/N=C/c1ccc(O)c(O)c1)C1CC1,7.6%
O=c1cnnc(Nc2ccc(Nc3ccccc3)cc2)[nH]1,-4.5%
CCN(CC)CCn1nc(C)nc1-c1ccccc1O,23.5%
O=C(CCc1nc(-c2ccccc2)no1)NCCc1ccccc1,16.9%
COc1cc(NC(=O)CC(c2cccs2)N2Cc3ccccc3C2=O)cc(OC)c1OC (stereo not drawn),4.8%
Cc1nc2c(C)cccc2cc1C(=O)N/N=C/c1ccc(O)cc1,-7.4%
COc1ccc(-c2noc(=O)n2Cc2cc(C)ccc2C)cc1,0.3%
O=C1c2cccc3cccc(c23)C(=O)N1CCN1CCN(C(=S)Nc2ccc(Cl)cc2)CC1,-4.5%
CC(C)(O)C#Cc1ccc(CN2CCN(C3CCCCC3)C(CCO)C2)s1 (stereo not drawn),7.1%
COc1ccc(Cl)cc1NC(=O)CN1CCN(S(=O)(=O)N2CCOCC2)CC1,-4.1%
O=C(NCc1cccc(Br)c1)c1cccn1-c1nnc(N2CCCCC2)s1,14.9%
CC12CCC(C(=NO)C1=NO)C2(C)C (stereo not drawn),-3.9%
N=c1ccn(Cc2ccc([N+](=O)[O-])cc2)cc1,1.4%
COc1ccc(CNS(=O)(=O)CCNC(=O)c2ccc(OC)cc2)cc1,9.5%
N#C/C(=C\c1coc2ccc(O)cc2c1=O)C(=O)Nc1nc2ccccc2s1,?
CCN1CC2=C(OC(N)=C(C#N)C2c2ccccc2)/C(=C\c2ccccc2)C1 (stereo not drawn),10.2%
Cn1c(SCC(=O)N/N=C/C=C/c2ccco2)nc2ccccc21,-16.2%
O=C1CC(NS(=O)(=O)c2cccnc2)CN1c1ccccc1 (stereo not drawn),-2.7%
Cc1ccccc1OCC(=O)NNC(=S)NC(=O)c1ccccc1[N+](=O)[O-],-4.9%
CCCCN(C(=S)Nc1cccc(SC)c1)C1CCN(C(C)=O)CC1,3.1%
CCOC(=O)N1CCN(C(=O)/C=C/c2cccc([N+](=O)[O-])c2)CC1,-0.3%
C=CCNC(=S)Nc1ccc(OC(F)F)c(Cl)c1,-16.7%
Cn1c(SCc2ccon2)nc2ccccc2c1=O,6.1%
Cn1c(=O)c(=O)n(C)c2cc(S(=O)(=O)N3CCOc4ccccc43)ccc21,-2.2%
CCOC(=O)c1cccc(NC(=O)C(C)N2C(=O)c3ccccc3C2=O)c1 (stereo not drawn),-12.0%
COc1cc2c(cc1OC)C(C)N(C(=O)c1cc(C)on1)CC2 (stereo not drawn),2.3%
Cc1ccccc1NC(=O)C(Cl)=C(Cl)Cl,?

# Screening results: PubChem BioAssay, National Center for Advancing Translational Sciences (NCATS)
